From PubChem
LASV entry inh: inhibitors of Lassa virus binding or cell entry; Potency, µM (series often up to 37.9 µM), without a hit: top-dose activity change, negative = inhibition, hits mostly inhibitors; 300,000 compounds, 1.2% hits; Lassa virus pseudotype entry inhibition, cell reporter; control for the full effect not named in the record; active means well fitted inhibition curve with a large enough effect; inconclusive means small, poorly fitted or top-dose-only effect, or effect the other way; inactive means flat fitted curve, though single readings scatter; tested in HEK293 cells; further: on the % scale 0 is the no-effect control and ±100 the full control effect; nearly all actives have a fitted effect of over 50% in size; luciferase read-out
Cruzain inh noDet: inhibitors of Trypanosoma cruzi cruzain without detergent | P25779 | purified cruzain, Z-FR-AMC fluorescence, no detergent | Potency, µM, inactives show max response, negative = inhibition, usual class: inhibitors | 200,000 compounds, 2.3% hits | AID 1476;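 further: plate controls were enzyme without inhibitor for no effect and buffer without enzyme for full effect; nearly all actives have a fitted effect of over 40% in size; top concentration of the series not given in the record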
Target sequence (P25779 123-467 limits assumed): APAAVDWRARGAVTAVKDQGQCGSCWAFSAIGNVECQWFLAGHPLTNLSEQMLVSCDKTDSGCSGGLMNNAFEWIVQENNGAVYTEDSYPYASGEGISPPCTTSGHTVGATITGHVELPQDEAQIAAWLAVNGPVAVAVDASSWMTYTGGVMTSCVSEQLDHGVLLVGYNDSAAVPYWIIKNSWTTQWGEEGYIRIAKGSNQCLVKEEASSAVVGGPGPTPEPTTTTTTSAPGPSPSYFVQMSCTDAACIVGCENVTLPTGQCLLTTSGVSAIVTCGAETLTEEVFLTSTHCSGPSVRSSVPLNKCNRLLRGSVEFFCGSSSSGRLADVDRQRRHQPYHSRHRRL
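Detergent-free condition (0.00005% Triton X-100) in acetate buffer pH 5.5 with DTT. 1.5 nM enzyme and compound were pre-mixed 15 min, then 2 uM Z-FR-AMC substrate added; reaction progress from fluorescence change between first and third reads (60 s).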
SARS PLP yeast: inhibitors of SARS-CoV papain-like protease in yeast; S. cerevisiae expressing SARS-CoV PLpro, growth rescue; control for the full effect not named in the record; Potency, µM (top dose mostly 32.9 µM), for inactives: at the highest dose activity, positive = growth rescue; 330,000 compounds, 0.19% hits; AID 485353; active means well fitted rising curve with a large enough effect; inconclusive means small, poorly fitted or top-dose-only effect; inactive means no such curve, though single readings can be large or run the other way; further: 0% is about no effect; nearly all actives have a fitted effect of over 55% in size; growth read by luminescence after 48 h
NS1 inh: inhibitors of influenza NS1 protein function | AID 2326 | 270,000 compounds, 0.4% hits | Potency, µM (doses to about 46.1 µM), without a hit: at the highest dose activity, positive = more growth | S. cerevisiae slowed by influenza A NS1, growth recovery by OD600; active means well fitted rising curve with a large enough effect; inconclusive means small, poorly fitted or top-dose-only effect; inactive means no such curve, though single readings can be large or run the other way; further: nearly all actives have a fitted effect of over 50% in size
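In this qHTS, NS1 from influenza A is expressed in budding yeast, where it slows growth. Cells are switched from glucose to 2% galactose medium (pH 6.0, -URA), treated with compound, and growth recovery is read at OD600.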
2A StopGo: lowers the luciferase signal of an FMDV 2A StopGo reporter. human cells with a luciferase reporter of 2A StopGo recoding; control for the full effect not named in the record. Potency, µM (doses to about 57.9 µM), without a hit: at the top dose signal change, negative = less light. 410,000 compounds, 1.2% hits; active = well fitted falling curve with a large enough effect; inconclusive = small, poorly fitted or top-dose-only effect; inactive = no such curve, though single readings can be large or run the other way; tested in HEK293T cells; further: on the % scale 0 is the no-effect control and ±100 the full control effect; nearly all actives have a fitted effect of over 45% in size; luciferase light after 4 h
RE007 growth inh: less growth of the S. pombe RE007 Vpr strain | S. pombe RE007 Vpr strain, BacTiter-Glo ATP luminescence, 24 h; control for the full effect not named in the record | Potency, µM (series often up to 92.2 µM), inactives show at the highest dose activity change, negative = less growth | 360,000 compounds, 0.21% hits | AID 651644; active = well fitted falling curve with a large enough effect; inconclusive = small, poorly fitted or top-dose-only effect; inactive = no such curve, though single readings can be large or run the other way;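 further: on the % scale 0 is the no-effect control and ±100 the full control effect; nearly all actives have a fitted effect of over 50% in size; the assay follows cell death caused by Vpr and the record does not say whether a fall means rescue or toxicity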
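Fission yeast strain RE007, carrying one chromosomally integrated HIV-1 vpr copy, was seeded at OD 0.01 in PMG+AL medium with 23 nL pinned compound. After 24 h at 30 °C and 99% humidity, viability was read by BacTiter-Glo luminescence.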
MARV entry inh: inhibitors of Marburg virus binding or cell entry; Marburg virus pseudotyped entry inhibition, cell reporter; control for the full effect not named in the record; about a third of the inactives were read at about 46 µM; Potency, µM (doses to about 37.8 µM), inactives show at the top dose activity change, negative = inhibition, actives largely listed as inhibitors; 300,000 compounds, 1.8% hits; AID 540276; active = well fitted inhibition curve with a large enough effect; inconclusive = small, poorly fitted or top-dose-only effect, or effect the other way; inactive = flat fitted curve, though single readings scatter; tested in HEK293 cells; about a fifth of its hits are not listed in these tables; further: on the % scale 0 is the no-effect control and ±100 the full control effect; luciferase read-out
Cruzain Triton: inhibitors of Trypanosoma cruzi cruzain with detergent; P25779; purified cruzain, Z-FR-AMC fluorescence, 0.01% Triton; Potency, µM, for the others: max response, negative = inhibition, actives largely listed as inhibitors; 200,000 compounds, 0.43% hits; AID 1478;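 further: plate controls were neutral wells for no effect and buffer without enzyme for full effect; nearly all actives have a fitted effect of over 40% in size; top concentration of the series not given in the record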
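Enzyme 1.5 nM, Z-FR-AMC 2 uM, NaOAc 100 mM pH 5.5, DTT 5 mM, Triton X-100 0.01%; 15 min RT compound preincubation; kinetic ex360/em450, 60 s delta.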
The depositor's hits bear a star; ? = inconclusive; / = not tested or not shown; & = joins results of further samples; [ ] = another dose, or the depositor's remark. Unless noted, the call rests on the fitted dose curve; in most records, active means well fitted curve in the direction sought with a large enough effect; inconclusive means small, poorly fitted or top-dose-only effect, or another doubt; inactive means no such curve, though single readings can be large; an effect the other way counts as inactive or inconclusive. Potency means the concentration at half of the fitted maximal effect.

1) CC(NC(=O)CC1Nc2ccccc2NC1=O)c1ccccc1 (stereo not given)
2) Cn1cc(/C=N\O)nc2c(=O)n(-c3ccccc3)c(=O)nc1-2
3) Cc1ccc(-c2cc(C(=O)N3CCCc4ccccc43)c3ccccc3n2)cc1
4) COCCOc1cc(-n2ccnc2SC)c(Cl)cc1Cl
5) COc1cc(/C=C/C(=O)OC(C)C(=O)c2ccccc2)cc(OC)c1OC (stereo not given)
6) O=C(N/C(=C/c1cn(-c2ccccc2)nc1-c1ccccc1)C(=O)N1CCOCC1)c1ccccc1
7) CCC(C)(C)C(=O)Nc1cccc(Cl)c1C
8) O=C(CNC(=O)c1ccco1)OCc1ccc(Cl)cc1
Compound | 1 | 2 | 3 | 4 | 5 | 6 | 7 | 8
LASV entry inh | 0% | -30% | -26% | -2% | 0% | / | -1%[46.1 µM] | -1%
Cruzain inh noDet | -11% | / | 32µM* | 7% | / | -4% | / | 0%
SARS PLP yeast | ? | 0% | -12% | -2% | 0% | 16% | 1% | -8%
NS1 inh | 2% | 0% | -54% | -14% | / | 1% | / | -12%
2A StopGo | 14% | 0% | -15% | -13% | -22% | / | -7% | -10%
RE007 growth inh | -9% | ? | -9% | 3% | -18% | / | -18% | -11%
MARV entry inh | 8% | 12%[46.1 µM] | ? | -15% | 4% | / | 4%[46.1 µM] | 11%
Cruzain Triton | -3.0% | / | -2.2% | -4.2% | / | -3.4% | / | 0.2%

9) CC(=O)Nc1cc2c3ccccc3ccc2c2ccccc12
10) O=c1[nH]c(=O)n(Cc2ccco2)c2c1C(C(F)(F)F)(C(F)(F)F)N=C(CCC1CCCCC1)N2
11) CCN(c1ccc(NC(=O)CCNC(=O)c2ccco2)cc1)C(C)C
12) CCn1c2ccccc2c2nc3cc(C(=O)O)ccc3nc21
13) Cc1cc(C(=O)COC(=O)c2ccccc2NCCO)c(C)n1CC1CCCO1 (stereo not given)
14) Cc1ccccc1Nc1nc(N)nc(COC(=O)CCNS(=O)(=O)c2ccccc2)n1
15) Cc1nc2sc(C(c3cccs3)N3CCC(C(N)=O)CC3)c(O)n2n1 (stereo not given)
16) CCc1cc2c(=O)c(-c3nc4ccccc4[nH]3)coc2c(CN2CCCCC2C)c1O (stereo not given)
Compound | 9 | 10 | 11 | 12 | 13 | 14 | 15 | 16
LASV entry inh | 21% | -2% | 12% | -20% | / | ? | 8% | /
Cruzain inh noDet | / | -17% | -6% | / | / | / | 13% | /
SARS PLP yeast | / | -5% | 6% | 0% | -2% | 1% | 1% | 0%
NS1 inh | / | 16% | -4% | -51% | -5% | / | 17% | 6%
2A StopGo | -8% | -17% | -2% | 6% | -26% | -16% | -2% | ?
RE007 growth inh | 8% | -14%[3.69 µM] | 1% | -9% | 14% | 8% | 6% | -1%
MARV entry inh | ? | 4% | -28% | -30%&-30%[46.1 µM] | / | 5% | -19% | /
Cruzain Triton | / | 2.1% | 1.0% | / | / | / | 4.5% | /

17) CCN(C(=O)CSc1nc2n[nH]c(C)c2c(=N)n1-c1ccc(Cl)c(C)c1)c1cccc(C)c1
18) COc1ccccc1CNS(=O)(=O)c1ccc(C)cc1
19) CCN1C(=O)CC(Sc2ccccc2N)C1=O (stereo not given)
20) Cc1ccc(Cn2c(=N)c(S(=O)(=O)c3ccc(C)cc3)cc3c(=O)n4ccccc4nc32)cc1
21) CCc1c(C)sc(NC(=O)OC)c1C(N)=O
22) COc1ccc2c(c1)C(=O)CC(c1ccc(OC)c(OC)c1)O2 (stereo not given)
23) O=C(CC1C(=O)NCCN1CCCc1ccccc1)NCCc1ccccc1F (stereo not given)
24) CC(C)(C)Cc1nnc(NS(C)(=O)=O)s1
Compound | 17 | 18 | 19 | 20 | 21 | 22 | 23 | 24
LASV entry inh | / | 13% | 3% | / | 4% | / | / | -2%
Cruzain inh noDet | / | 8% | 1% | / | 4% | / | / | /
SARS PLP yeast | 3% | 5% | 3% | -2% | -2% | 0% | 8% | /
NS1 inh | 15% | 3% | -1% | 5% | -43% | 3% | 9% | /
2A StopGo | -29% | 39%[activator] | -12% | -4% | -5% | -14% | -8% | -4%
RE007 growth inh | 24% | 7% | -10% | 2% | 7% | 3% | 2% | 10%
MARV entry inh | / | 29% | ? | / | -5% | / | / | 2%
Cruzain Triton | / | -2.7% | -0.9% | / | 2.8% | / | / | /

25) COc1ccc(C(=O)NC(=S)NCc2ccc(-c3nc4ccccc4o3)cc2)cc1OC
26) Cc1cc(CNC(=O)C(C)n2cc([N+](=O)[O-])cn2)c2ccccc2n1 (stereo not given)
27) CC(CN1CCCC1)OC(=O)c1ccccc1Cl (stereo not given)
28) OC(COc1cccc2ccccc12)CN1CCN(c2ccccc2Cl)CC1 (stereo not given)
29) CN1CCN(c2ccc(S(=O)(=O)N3CCCCC3)cc2NC(=O)c2ccc(C#N)cc2)CC1
30) CC(C)CC(=O)Nc1c2c(nn1-c1ccc([N+](=O)[O-])cc1)CS(=O)(=O)C2
31) CN(C(=O)c1ccc(NC(=O)Cc2ccc(NC(=O)C3CCN(C(=O)c4ccccc4)CC3)cc2)cc1)C1CC1
32) CC1=CC2=NC(=O)/C(=C/c3coc4ccccc4c3=O)C(=N)N2O1
Compound | 25 | 26 | 27 | 28 | 29 | 30 | 31 | 32
LASV entry inh | -16% | ? | 17% | / | -2% | 3%[46.1 µM] | / | -30%
Cruzain inh noDet | 20% | / | / | / | -2% | / | / | /
SARS PLP yeast | 2% | 4% | -6% | -2% | 7% | -2% | 1% | 1%
NS1 inh | 3% | / | 7% | -75% | 5% | -2% | / | -2%
2A StopGo | 1% | -6% | 1% | -20% | -6% | -13% | -2% | -3%
RE007 growth inh | -1% | -15% | 7% | -9% | -8% | 10% | 26% | 20%
MARV entry inh | ? | ? | 13% | / | 7% | -20%[46.1 µM] | 0% | 0%[46.1 µM]
Cruzain Triton | 1.5% | / | / | / | -2.9% | / | / | /

33) N#Cc1ccc(NCCc2ccccn2)c([N+](=O)[O-])c1
34) Cc1cc(C(=O)COC(=O)c2ccc(Cl)c(S(N)(=O)=O)c2)c(C)n1CC1CCCO1 (stereo not given)
35) Cn1c(=O)cc(NCCc2ccccc2)[nH]c1=O
36) COc1ccc2c(c1)CC(C(=O)Nc1ccc(OC)cc1OC)CO2 (stereo not given)
37) CC(C)N(Cc1ccccc1)C(=O)C1CCCN(c2ncnc3onc(-c4ccc(F)cc4)c23)C1 (stereo not given)
38) COc1cc2ccc3c(CCN(C)C)cc(OC)c(OC)c3c2cc1OC
39) CCCCN(CCCC)CCCNC(=O)C12CN(Cc3ccccc3)CC1C(c1cccc([N+](=O)[O-])c1)=NO2 (stereo not given)
40) COc1ccc(/C=N/NC(=O)c2cc(C)on2)c2ccccc12
Compound | 33 | 34 | 35 | 36 | 37 | 38 | 39 | 40
LASV entry inh | / | -28%[46.1 µM] | ? | ? | -15%[46.1 µM] | / | / | 1%
Cruzain inh noDet | / | / | 1% | 2% | 19% | / | 7% | -9%
SARS PLP yeast | 0% | 1% | 8% | / | / | -3% | 1% | -2%
NS1 inh | -2% | / | 10% | / | / | 5% | 8% | -17%
2A StopGo | 2% | -11% | -23% | -10% | 0% | 18% | -19% | -6%
RE007 growth inh | -10% | 4% | -9% | / | / | 8% | -14% | 18%
MARV entry inh | / | ? | ? | / | / | / | -2% | 8%[46.1 µM]
Cruzain Triton | / | / | 3.5% | -1.0% | -4.3% | / | -2.9% | -0.7%

Record cards, as listed above. Order of values: LASV entry inh	Cruzain inh noDet	SARS PLP yeast	NS1 inh	2A StopGo	RE007 growth inh	MARV entry inh	Cruzain Triton
Entry for `N#Cc1ccc(NCCc2ccccn2)c([N+](=O)[O-])c1` → /	/	0%	-2%	2%	-10%	/	/
Entry for `Cn1c(=O)cc(NCCc2ccccc2)[nH]c1=O` → ?	1%	8%	10%	-23%	-9%	?	3.5%
Entry for `Cc1cc(C(=O)COC(=O)c2ccc(Cl)c(S(N)(=O)=O)c2)c(C)n1CC1CCCO1` (stereo not given) → -28%[46.1 µM]	/	1%	/	-11%	4%	?	/
Entry for `COc1ccc2c(c1)CC(C(=O)Nc1ccc(OC)cc1OC)CO2` (stereo not given) → ?	2%	/	/	-10%	/	/	-1.0%
Entry for `COc1ccc(/C=N/NC(=O)c2cc(C)on2)c2ccccc12` → 1%	-9%	-2%	-17%	-6%	18%	8%[46.1 µM]	-0.7%

Remaining list, next part.
41) COC(=O)Cn1c2ccccc2c2nc(C)sc21
42) CCC(NC(=O)NCc1cccnc1)(C(F)(F)F)C(F)(F)F
43) COc1cc(/C=C/C(=O)OCC(=O)Nc2cc(S(=O)(=O)N3CCOCC3)ccc2Cl)cc(OC)c1OC
44) O=C(NC1c2ccccc2-c2ccccc21)c1ccco1
45) CC(=O)c1c(C(C)=O)c(C)n(-c2nc(-c3ccccc3)c(C)s2)c1C
46) COc1ccc(N2CCN(C3CCCCC3NS(=O)(=O)c3ccc(Cl)cc3)CC2)cc1 (stereo not given)
47) O=c1[nH]nc(-c2cccs2)c2ccccc12
Compound | 41 | 42 | 43 | 44 | 45 | 46 | 47
LASV entry inh | 12% | -1% | -16%[46.1 µM] | 25% | ? | / | -4%
Cruzain inh noDet | -5% | 3% | / | 0% | 4% | / | /
SARS PLP yeast | -2% | -6% | -12% | -17% | -6% | 2% | 0%
NS1 inh | -42% | -2% | / | 4% | -17% | -19% | /
2A StopGo | -7% | -6% | 10% | -4% | ? | ? | -10%
RE007 growth inh | 2% | 3% | 10% | 27% | 22% | -5% | 18%
MARV entry inh | 0% | -25% | ? | -13%[46.1 µM] | -9% | / | -9%
Cruzain Triton | -2.5% | 1.6% | / | -1.2% | 0.1% | / | /
